# Compound activity deposited in PubChem by National Center for Advancing Translational Sciences (NCATS).
# Pin1 inhibitor: human Pin1 inhibition; Q13526; Pin1 FP peptide displacement, HiFluor488, 10 min; Potency, µM (series often up to 115 µM), without a hit: at the highest dose activity, negative = inhibition, hits mostly inhibitors; hit rate 0.009% among 390,000; AID 504891; active means well fitted inhibition curve with a large enough effect in the polarisation, with a control signal flat, not every such curve was filed as active; inconclusive means small, poorly fitted or top-dose-only effect, or effect the other way, or a change in a side signal; inactive means no such curve, though single readings can be large or run the other way; the % refers to the polarisation; further: on the % scale 0 is the no-effect control and ±100 the full control effect
# Target sequence (Q13526 whole entry, looked up): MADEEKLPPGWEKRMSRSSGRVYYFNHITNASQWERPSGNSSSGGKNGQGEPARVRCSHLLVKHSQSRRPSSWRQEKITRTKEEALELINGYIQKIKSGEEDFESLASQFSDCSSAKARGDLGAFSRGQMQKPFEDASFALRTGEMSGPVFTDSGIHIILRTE
# Tb PGK inh: blocks T. brucei phosphoglycerate kinase | P07378 | PGK/GAPDH coupled, Kinase-Glo luminescence, 60 min | Potency, µM (doses to about 57.5 µM), inactives show at the highest dose activity change, negative = inhibition, most hits filed as inhibitors | hit rate 0.043% among 380,000 | AID 602233; further: on the % scale 0 is the no-effect control and ±100 the full control effect; nearly all actives have a fitted effect of over 60% in size
# Target sequence (P07378 whole entry, looked up): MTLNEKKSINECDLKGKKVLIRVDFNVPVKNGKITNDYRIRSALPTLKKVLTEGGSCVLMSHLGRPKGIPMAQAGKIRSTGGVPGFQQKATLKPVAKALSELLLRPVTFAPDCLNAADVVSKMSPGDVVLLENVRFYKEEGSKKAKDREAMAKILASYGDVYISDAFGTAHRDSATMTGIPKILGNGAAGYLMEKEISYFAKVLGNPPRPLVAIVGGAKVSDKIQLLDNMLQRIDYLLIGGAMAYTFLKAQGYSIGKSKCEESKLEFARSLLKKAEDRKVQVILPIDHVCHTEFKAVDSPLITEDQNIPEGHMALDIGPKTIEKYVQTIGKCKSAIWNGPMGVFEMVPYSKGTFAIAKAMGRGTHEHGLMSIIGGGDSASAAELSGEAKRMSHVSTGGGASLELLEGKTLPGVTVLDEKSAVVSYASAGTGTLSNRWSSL
#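 Recombinant glycosomal PGK reaction used 1,3-bisphosphoglycerate generated in-well by GAPDH (100nM final) in 100mM TEA pH 7.6, 5mM MgCl2, 0.01% Tween-20. After 60 minutes at room temperature, ATP was read by Kinase-Glo Plus luminescence end-point.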
# Pol iota inh: DNA polymerase iota (human) inhibition; Q9UNA4; Pol iota fluorescent replication assay, 10 min; Potency, µM (titrated, usually from 115 µM), inactives show at the top dose activity, negative = inhibition, hits mostly inhibitors; hit rate 1% among 390,000; AID 588590
#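 Fluorescent replication assay read twice, at 0 min and 10 min after adding 50 nM (final) substrate. Enzyme (10 nM) and compounds were first incubated 15 min at room temperature; enzyme-free buffer wells were negative controls.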
# GLS inh: blocks human kidney-isoform glutaminase activity; O94925; GLS enzymatic activity, qHTS titration; Potency, µM (highest dose often 45.5 µM), inactives show at the highest dose activity change, negative = inhibition, actives largely listed as inhibitors; hit rate 0.21% among 410,000; AID 624170; further: on the % scale 0 is the no-effect control and ±100 the full control effect
#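 Assay buffer: 45 mM KH2PO4 pH 8.2, 0.02% Tween-20. hKGA acts on L-glutamine (1 mM solution added); product glutamate is reported by an oxidase/peroxidase Amplex Red coupling, with fluorescence taken at baseline and 30 min.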
# G9a block: G9a (human) methyltransferase inhibition | Q96KQ7 | G9a H3K9 monomethylation, AlphaScreen, 2 h | Potency, µM (doses to about 102 µM), for inactives: top-dose activity, negative = inhibition, usual class: inhibitors | hit rate 8.8% among 350,000; further: on the % scale 0 is the no-effect control and ±100 the full control effect; nearly all actives have a fitted effect of over 75% in size
# Target sequence (Q96KQ7 913-1193 limits assumed): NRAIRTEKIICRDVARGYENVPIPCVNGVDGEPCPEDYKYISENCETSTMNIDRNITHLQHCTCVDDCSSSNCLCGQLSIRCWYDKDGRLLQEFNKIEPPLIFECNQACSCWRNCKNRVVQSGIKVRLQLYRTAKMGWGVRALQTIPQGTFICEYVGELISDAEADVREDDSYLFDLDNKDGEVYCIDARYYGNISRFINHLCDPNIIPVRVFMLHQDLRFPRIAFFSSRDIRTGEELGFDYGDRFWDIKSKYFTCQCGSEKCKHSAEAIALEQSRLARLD
#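 Compounds were preincubated with 20 nM G9a for 15 min, after which biotinylated H3K9 peptide (500 nM) and SAM (20 uM) started a 2 h room-temperature reaction. Monomethylated product was quantified by antibody-based AlphaScreen chemiluminescence.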
# JMJD2A Tudor inh: JMJD2A Tudor domain (human) inhibition. O75164. AlphaScreen JMJD2A-Tudor / H3K4me3 peptide binding. Potency, µM (highest dose often 114 µM), for the others: at the top dose activity change, negative = inhibition, hits mostly inhibitors. hit rate 4.4% among 390,000; further: on the % scale 0 is the no-effect control and ±100 the full control effect; nearly all actives have a fitted effect of over 50% in size
# BLM inh: blocks DNA unwinding by human BLM helicase; P54132; recombinant BLM DNA unwinding, fluorescence dequenching; Potency, µM (top dose mostly 56.1 µM), for the others: at the top dose activity change, negative = inhibition, hits mostly inhibitors; hit rate 0.2% among 350,000; AID 2528;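 further: plate controls were vehicle for no effect and no enzyme for full effect; nearly all actives have a fitted effect of over 35% in size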
# HP1b binding inh: HP1-beta chromodomain-methylated histone interaction inhibition; Potency, µM (highest dose often 114 µM), for the others: at the top dose activity change, negative = inhibition, most hits filed as inhibitors; AID 540317; hit rate 0.56% among 390,000; AlphaScreen HP1-beta / biotin-H3K9me3 peptide binding; P83916; further: nearly all actives have a fitted effect of over 70% in size; inactives centre near 23
# Target sequence (P83916 whole entry, looked up): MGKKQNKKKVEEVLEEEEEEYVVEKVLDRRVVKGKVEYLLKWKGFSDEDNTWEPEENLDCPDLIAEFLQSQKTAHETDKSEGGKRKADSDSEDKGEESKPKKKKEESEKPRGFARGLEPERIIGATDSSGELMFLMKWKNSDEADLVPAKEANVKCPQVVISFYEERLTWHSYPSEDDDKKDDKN
#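 Compound inhibition of the preformed complex between 50 nM HP1-beta and 50 nM biotinylated H3K9me3 peptide was read by AlphaScreen. Buffer was PBS pH 7.4 with 0.01% Tween-20. Incubations ran 30 min at room temperature, with 10 ug/mL donor/acceptor beads.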
# * = called active by the depositor; i = inactive; ? = inconclusive; . = no result given; & = joins results of further samples; [ ] = dose if it differs, or a comment. Unless noted, the call rests on the fitted dose curve; in most records, active means well fitted curve in the direction sought with a large enough effect; inconclusive means small, poorly fitted or top-dose-only effect, or another doubt; inactive means no such curve, though single readings can be large; an effect the other way counts as inactive or inconclusive. Potency means the concentration at half of the fitted maximal effect.
# Values in the order: Pin1 inhibitor, Tb PGK inh, Pol iota inh, GLS inh, G9a block, JMJD2A Tudor inh, BLM inh, HP1b binding inh
> CCOC(=O)CCCc1ccc(/C(C)=N/NC(N)=S)cc1
  -0.1%, 0.7%, -15.8%[58.9 µM], 1.7%, ., -33.9%, 2.1%, ?
> Cc1ccc(NC(/C=C/N(C)C)=C/C(=O)C(F)(F)F)c(C)c1
  -0.9%, -6.8%, 11.9%, -4.8%, ?, ?, -1.7%, 0.7%
> Cc1c(C(=O)c2ccc(Cl)cc2[N+](=O)[O-])c2ccccn2c1CCC#N
  1.6%, 2.2%, -5.4%, 8.6%, 11.2µM*, ?, 0.0%, ?
> O=C1CCC(=O)N1c1ccc(NCCc2ccccc2F)c([N+](=O)[O-])c1
  -0.8%, 8.6%, 34.1%[activator], 7.0%, -22.4%, -13.7%, -5.6%, 2.2%
> C=CCN1C(=O)c2ccc(C(=O)N3CCC(C(=O)OCC)CC3)cc2C1=O
  3.2%, 4.6%, 119.5%[activator], -11.2%, -24.0%, 4.1%, ., 32.5%
> COc1ccc(-c2nnc(NC(=O)c3ccc(S(=O)(=O)N(C)CC4CCCO4)cc3)o2)c(OC)c1 (configuration not stated)
  1.5%, 9.6%, 23.4%, -8.2%, 11.6%, ?, -12.6%, 25.3%
> Cc1sc2nc(CN3CCCC3)nc(N3CCC(C(N)=O)CC3)c2c1C
  16.0%, -2.9%, -8.5%, 8.5%, 4.5%[12.7 µM], -23.4%, -0.9%, 16.7%
> CCc1ccc(NC(=O)CSc2nnc(-c3ccccn3)n2C)cc1
  -0.9%, 4.9%, 2.4%, 1.4%, 4.5%, -24.0%, 0.8%, 24.1%
> CCC1=Nc2cc(C(=O)NCCN3CCCC3)ccc2Sc2ccccc21
  10.0%, -6.8%, 6.7%, 5.0%, 44.7µM*, -0.8%, 10.9%, 38.6%[activator]
> CCOC(=O)C1CCCN(c2oc(-c3ccc(OC)cc3)nc2C#N)C1 (configuration not stated)
  ?, 6.2%, 5.8%, 0.9%, 50.1µM*, ?, -10.1%, ?
> CCc1cc(N2CCOCC2)cc2c1[nH]c1ccccc12
  -8.5%, i, -7.7%, 44.6%[activator], 14.1µM*, ?, -5.1%, ?
> CC(Oc1ccc(Br)cc1)C(=O)Nc1ccc(N2CCOCC2)cc1N1CCOCC1 (configuration not stated)
  3.1%, i, -9.0%, 27.5%, -30.4%[0.501 µM], ?, ., -26.8%
> Cc1cc(-c2ccccc2)c2c3c(cn2n1)c(=O)n(C)c(=O)n3C
  -0.6%, -4.2%, 2.4%, -3.1%, 10.2%[59 µM], -29.8%[57.1 µM], 0.5%, -49.0%
> O=C(NC(=S)Nc1ccccc1N1CCCC1)c1cccc(F)c1
  -2.1%, -6.2%, 62.1%[activator], 14.2%, 25.1µM*, -80.8%, -21.7%, ?
> CCc1ccc(NC(=O)CSc2nccn2-c2cccc(C)c2C)cc1
  1.0%, -9.8%, -12.6%, -13.7%, 15.8µM*, ?, -9.6%, ?
> CCN=c1scc(C)n1/N=C/c1ccsc1
  -5.1%, 2.0%, 60.3%[activator], ?, -29.7%[59 µM], ?, -0.5%, ?
> Cc1ccc(CCNC(=O)C2CCCN(c3nc4ccccc4o3)C2)cc1 (configuration not stated)
  -3.4%, -8.6%, -16.8%, 5.0%, -4.8%, -6.4%, -1.6%, 7.2%
> COc1cccc(OC)c1C(=O)Nc1cc2c(cc1N1CCOCC1)n(C)c(=O)n2C
  1.4%, -8.0%, 46.1%[activator], 9.9%, ., -25.6%, -2.2%, 29.1%
> NS(=O)(=O)c1ccc(CNC(=O)c2cc(=O)c3cc(Cl)ccc3o2)cc1
  1.7%, i, 29.5%, 1.2%, 19.2%, -5.7%, -0.7%, 24.0%
> O=C(CCCl)N1CCCC2(CCCCC2)C1
  -3.6%, -7.2%, 23.7%, 1.1%, 4.5%, -9.2%, 0.7%, 28.9%
> CCc1ccccc1NC(=O)CSc1nnc([C@@H](N)Cc2ccccc2)o1
  1.3%, 3.7%, ?, 4.8%, ?, -31.1%, -11.6%, 43.8%
> CCCNC(=O)CSc1nc2nc(C)c(Cc3ccccc3Cl)c(C)n2n1
  -0.6%, -9.2%, 10.0%, 7.6%, 7.7%[59 µM], -14.3%, -6.2%, 25.3%
> COc1ccccc1C(=O)Nc1ccc2c(c1)OCCO2
  1.5%, -7.5%, 8.1%, 1.3%, 5.1%[0.0925 µM], -15.1%, -5.5%, 8.8%
> CC1=C(C(N)=O)C(c2ccc3c(c2)OCO3)n2nc(-c3cccc(C)c3)nc2N1 (configuration not stated)
  ?, 3.2%, 13.4%, 9.8%, 0.355µM*, -10.1%, -0.4%, 30.8%
> C(=N\N1CCOCC1)/c1cn(-c2ccccc2)nc1-c1ccccc1
  -0.7%, -5.8%, 29.4%, 7.9%, 50.1µM*, ?, -12.3%, 15.0%
> COc1ccccc1OCC(=O)NNC(=O)c1cnccn1
  -4.8%, -5.0%, ?, 4.4%, ., -26.5%, 0.6%, 22.8%
> CCc1nc(-c2cc3ccc(C)cc3[nH]c2=O)no1
  0.5%, 5.0%, 9.1%, -2.3%, 12.4%[2.33 µM], -18.0%, 1.6%, 6.9%
> COc1ccccc1Nc1nc(N)nc(CN2CCc3ccccc3C2)n1
  -7.1%, 7.3%, 5.6%, 22.6%, ?, ?, -7.6%, 20.9%
> C/C(=N\Nc1ccc(C(F)(F)F)cc1[N+](=O)[O-])C1CC1
  -1.7%, i, -6.1%, -6.2%, 7.94µM*, ?, -4.0%, -41.1%
> NS(=O)(=O)c1ccc(NC(=O)COC(=O)C2(c3ccccc3F)CCCC2)cc1
  ?, -2.3%, -4.6%, 1.4%, 6.9%[59 µM], -18.1%, -6.9%, 11.1%
> CCN(CCCNC(=O)CCCN1C(=O)COc2ccc(C)cc21)c1cccc(C)c1
  -1.4%, 3.8%, -1.3%[58.9 µM], 10.1%, 35.5µM*, ?, -10.9%, -17.7%
> COc1ccc(NC(=S)Nc2ccc(OCc3ccccc3)cc2)c(OC)c1
  5.0%, -3.7%, 5.5%, 15.0%, ?, ?, -4.6%, ?
> Cc1onc(-c2ccccc2Cl)c1C(=O)Oc1cccc2cccnc12
  7.1%, 3.4%, 134.2%[activator], -12.1%, -4.5%, -1.0%, -9.6%, 37.4%[activator]
> CC(=O)c1ccc(NC(=O)CN2CCN(c3ncccn3)CC2)cc1
  3.0%, -10.1%, 4.4%, -2.9%, ?, -100.0%[57.1 µM], 0.7%, ?
> Cc1ccc(S(=O)(=O)c2nc(-c3ccc(Cl)cc3)oc2N2CCCCCC2)cc1
  -6.5%, -6.6%, 7.2%, 3.0%, 14.1µM*, -25.1%, -10.1%, -8.2%
> C/C(=N/NC(=S)Nc1cccc(C)c1)c1cccc([N+](=O)[O-])c1
  4.3%, i, -22.2%, 13.0%, ., -57.9%, -9.5%, ?
> Cc1ccc(S(=O)(=O)NCC(=O)N(CC(=O)NCC2CCCO2)Cc2ccco2)cc1 (configuration not stated)
  2.7%, 10.1%, 20.9%, 0.3%, 31.6µM*, -8.2%, -27.6%, 38.5%
> CC1C(O)=C(c2nc3ccccc3[nH]2)C(=N)N1c1ccccc1 (configuration not stated)
  -1.7%, -5.7%, -0.3%, 1.1%, 31.7%[activator][59 µM], -18.6%, -3.2%, 25.2%
> CCOc1ccc(C2=NNC(c3cccs3)=Nc3ccc(OC)cc32)cc1
  7.5%, -5.1%, 4.7%, 0.8%, 11.2µM*, ?, -3.0%, ?
> COc1cc(NC(=O)c2cccs2)c(C(=O)OCC(=O)NC(=O)NC(C)(C)C)cc1OC
  -2.1%, -5.5%, -3.2%, -2.0%, 2.5%, 14.8%, -3.6%, 47.1%[activator]
> Cc1ccc(C)c(N2CCN(C(=O)CCCn3ncn4c(cc5occc54)c3=O)CC2)c1
  -3.4%&-3.1%, -1.1%, 3.5%&30.7%, -6.2%&9.5%, -31.5%[59 µM], ?, -1.9%&-1.0%, 2.0%&7.0%
> COC(=O)NC(Nc1sc2c(c1C(N)=O)CCCC2)(C(=O)OC)C(F)(F)F (configuration not stated)
  -3.5%, -8.1%, 22.6%, -13.7%, 11.2µM*, -17.3%[57.1 µM], -4.2%, 22.6%
> O=C(NC(=S)Nc1ccccc1N1CCOCC1)c1cccs1
  -0.4%, -7.1%, -8.4%, 3.4%, ?, ?, 0.9%, -26.8%
> Cc1ccc(Oc2ccc3c(c2)C(=O)N(c2ccc(S(=O)(=O)Nc4nccs4)cc2)C3=O)cc1
  ?, 5.5%, ?, -2.7%, 29.1%[0.501 µM], ?, -16.3%, -18.7%
> Cc1c(C(=O)O)c(C(=O)O)nc2ccc(N3CCOCC3)cc12
  ., ., ., ., 3.16µM*, ., -1.5%, .
> CC(C)Cn1c(=O)c2ccccc2n2c(-c3cccc(Cl)c3)nnc12
  -4.9%, -0.5%, -16.9%, 13.4%, ?, ?, -1.5%, -1.3%
> CCOc1ccc(-c2csc(/C(C#N)=C/c3ccc(Br)cc3)n2)cc1
  31.5%[activator], -0.7%, 1.1%, 6.6%, 57.1%[activator][59 µM], 76.1%[activator], -2.6%, 123.7%[activator]
> CCOC(=O)N1CCC(N2CCN(S(=O)(=O)c3ccc(C)cc3)CC2)CC1
  -7.2%, -5.7%, -6.9%, -1.9%, ?, ?, 0.9%, ?
> O=C(CSc1ccc(C(F)(F)F)cc1[N+](=O)[O-])NCCOc1ccccc1
  -5.1%, i, -24.6%, -6.9%, ?, -22.2%, 7.0%, 19.7%
> COc1ccccc1C(=O)NNC(=O)C(=O)NC(C)C
  1.6%, 2.7%, ?, 1.5%, ?, ?, 0.7%, 25.1%
> Cc1cccc(NC(=O)CSc2nccn2-c2cccc(Cl)c2)c1C
  -10.7%, -9.9%, 27.8%, 1.7%, ?, ?, -4.7%, -13.4%[57 µM]
> Cc1nc(S/C(C(=O)O)=C2/C(=O)Nc3ccccc32)n[nH]1
  1.0%, 1.2%, ?, -6.0%, 35.5µM*, -27.9%, -3.3%, 16.3%
> O=C(O)c1ccccc1C(=O)Nc1ccc(Nc2ccc([N+](=O)[O-])cc2[N+](=O)[O-])cc1
  -1.1%, i, 19.1%, 7.6%, ?, ?, 0.1%, 1.0%
> CCNC(=S)N1CCN(c2nc(-c3cccc(OC)c3)cs2)CC1
  35.2%[activator], -5.3%, ?, 4.5%, 79.4µM*, ?, -6.2%, -23.5%
> CC1=Nc2cc(C(=O)NCCc3ccccc3)ccc2Sc2c(C)ccc(C)c21
  ?, -6.4%, 13.7%, -14.7%, 8.2%[59 µM], -18.2%, -12.2%, 37.0%
> CC(=O)NS(=O)(=O)c1ccc(N=c2ssc3c2-c2cc(C)c(C)cc2NC3(C)C)cc1
  -8.0%, i, 37.6%[activator], ?, 5.01µM*, ?, -5.2%, -26.0%

# Some of the compounds tested; rates above refer to the full screens.
